# Yeast UUG start: modulators of yeast start codon fidelity, primary screen, whole organism, S. cerevisiae, single point, plate reader; S. cerevisiae UUG-firefly luciferase reporter, luminescence/redox ratio; activity score, % at 18.7 µM; 0.13% of 350,000 active; AID 602363, 2012;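 active = replicate mean at a twofold rise or more, about +100% in these data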;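 also: firefly luciferase made from a UUG start codon reports start codon fidelity; reporter light over untreated wells divided by growth signal over untreated wells; some hits fall short of that in this replicate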
# HIV Env fusion: inhibitors of HIV-1 Env-driven cell-cell fusion, primary screen, HeLa-JRFL effector, CEM21 target cells, luciferase. 1.1% of 360,000 active. AID 651610, 2012. inhibition, % at 12.3 µM;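 active = mean replicate inhibition score of at least 50 and every replicate individually at or above 50; inconclusive = only one of the two criteria met; inactive = mean below 50 and not all replicates reaching 50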;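 also: 0% = plate neutral controls and 100% = maraviroc near 300 nM; one replicate is shown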
# MT1-MMP act inh: blockers of MT1-MMP proenzyme processing, primary screen, HT1080 RFP-PRO-GFP cells, GFP/RFP fluorescence. GFP/RFP ratio change, % at 20 µM. Matrix metalloproteinase-14 (Homo sapiens), P50281. GFP/RFP ratio fluorescence, overnight; percent of plate control window, DMSO zero. 0.061% of 360,000 active;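 active = GFP/RFP ratio change of at least 30% with cell ATP level not reduced by more than half and red fluorescence within 50% of control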; also: strong numbers were not always called active
#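 Read-out: GFP/RFP fluorescence ratio; Test system: RFP-PRO-GFP reporter HT1080 cells; Compound dosing: single-point 20 µM compound, 1% DMSO; Times: overnight compound exposure at 37 °C.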
# Rce1 inhib: yeast Rce1p protease inhibitors, primary screen, biochemical, fluorescence, cell-free homogeneous. calls only. CAAX prenyl protease 2 (Saccharomyces cerevisiae (strain ATCC 204508 / S288c)), Q03530. 0.27% of 290,000 active. yeast membranes, quenched prenylated peptide cleavage fluorescence;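 active = fall in fluorescence gain of 50% or more versus controls, with final raw signal at or below 3038400; inconclusive = same 50% fall but final raw signal above 3038400; inactive = fall in fluorescence gain under 50%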;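 also: plate controls were neutral control wells for no effect and wells lacking membranes for full effect; tested at 10 µM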
# Target sequence (Q03530 whole entry, looked up): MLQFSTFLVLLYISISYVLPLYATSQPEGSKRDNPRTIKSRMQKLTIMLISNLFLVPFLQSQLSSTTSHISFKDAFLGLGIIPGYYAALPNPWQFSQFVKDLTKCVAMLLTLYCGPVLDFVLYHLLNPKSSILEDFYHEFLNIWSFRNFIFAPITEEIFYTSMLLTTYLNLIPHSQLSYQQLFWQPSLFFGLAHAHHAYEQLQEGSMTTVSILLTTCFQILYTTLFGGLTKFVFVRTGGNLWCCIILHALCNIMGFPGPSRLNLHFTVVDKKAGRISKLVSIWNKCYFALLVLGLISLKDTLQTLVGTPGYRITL
# CSC inhib: cancer stem cell viability inhibitors, primary screen, luminescence; 1.1% of 300,000 active; cancer stem cell-like cells viability; inhibition, % at 7.5 µM;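 active = mean at 75% or more and at least half the replicates too; inconclusive = mean and replicates disagree; tested in HMLE shEcad cells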;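 also: 0% = median of negative and 100% = median of positive control wells; the first replicate is given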
# eIF4H FP inh: human eIF4H binding inhibitors, primary screen, translation initiation inhibitor project, biochemical, uHTS, fluorescence polarization. Eukaryotic translation initiation factor 4H (Homo sapiens), Q15056. eIF4H fluorescence polarization binding assay. inhibition, % at 35 µM. 0.94% of 290,000 active. AID 2012, 2009;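 active = 50% or more with normal probe brightness, or confirmed in later tests; inconclusive = above 50% with abnormal brightness, or retests that disagree; inactive = below 50% or failed in later tests; about a fifth of its hits are not listed in these tables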;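 also: calls also rest on retests at 20 µM and on dose response follow-up; 0% = protein and probe with vehicle and 100% = probe without protein; strong numbers were not always called active; many hits fall short of the cut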
# PABP FP inh: PABP poly(A) RNA binding inhibitors, primary screen, biochemical, fluorescence polarization, uHTS | 1% of 290,000 active | AID 2014, 2009 | Polyadenylate-binding protein 1 (Homo sapiens), P11940 | inhibition, % at 35 µM;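 active = 50% or more with normal probe brightness, or confirmed in later tests; inconclusive = above 50% with abnormal brightness, or retests that disagree; inactive = below 50% or failed in later tests; about a fifth of its hits are not listed in these tables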;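 also: calls also rest on retests at 20 µM and on dose response follow-up; controls were probe without protein and protein plus probe with vehicle; some compounds called inactive have numbers as strong as hits; many hits fall short of the cut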
# Target sequence (P11940 whole entry, looked up): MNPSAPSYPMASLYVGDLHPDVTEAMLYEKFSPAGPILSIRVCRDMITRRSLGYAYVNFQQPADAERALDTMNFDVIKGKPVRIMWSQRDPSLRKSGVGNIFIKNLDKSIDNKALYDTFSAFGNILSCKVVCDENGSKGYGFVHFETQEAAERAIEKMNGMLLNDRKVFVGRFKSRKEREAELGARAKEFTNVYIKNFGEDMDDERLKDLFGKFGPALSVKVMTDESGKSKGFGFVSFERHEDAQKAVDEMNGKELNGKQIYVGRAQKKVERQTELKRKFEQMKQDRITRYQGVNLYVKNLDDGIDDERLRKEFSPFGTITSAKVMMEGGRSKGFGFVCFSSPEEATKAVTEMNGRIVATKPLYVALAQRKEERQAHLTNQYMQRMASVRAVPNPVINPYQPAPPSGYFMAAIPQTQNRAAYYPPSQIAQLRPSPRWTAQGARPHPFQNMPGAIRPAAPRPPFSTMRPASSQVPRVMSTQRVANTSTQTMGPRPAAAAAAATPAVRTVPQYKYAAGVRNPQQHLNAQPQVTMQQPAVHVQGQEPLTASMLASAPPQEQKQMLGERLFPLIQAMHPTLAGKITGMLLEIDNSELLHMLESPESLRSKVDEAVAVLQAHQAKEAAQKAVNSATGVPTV
# eIF4H FP inh retest: also measured in eIF4H FP inh; calls as there; inhibition, %; compound at 20 µM; confirmation average;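 mean of two retest wells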
# PABP FP inh retest: further read-out of PABP FP inh, marked with its call; inhibition, %; compound at 20 µM; confirmation repeats;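 mean of two retest wells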
# MT1-MMP act inh RFP: second read-out of MT1-MMP act inh, no call of its own (marks repeat the call); RFP signal change, %; measured here: RFP expression control read;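 0 = vehicle wells; hits needed this value within 50% of zero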
# The depositor's hits bear a star; i = inactive; ? = inconclusive; / = no result given; & = joins results of further samples. An unsorted share of the library; about 2.9% have a hit in one of these screens.
SMILES,Yeast UUG start,HIV Env fusion,MT1-MMP act inh,MT1-MMP act inh RFP,Rce1 inhib,CSC inhib,eIF4H FP inh,PABP FP inh,others
CCOC(=O)C1CCN(C(=O)c2ccc3c(c2)S(=O)(=O)c2ccccc2C3=O)CC1,7,-8,3,1,i,-17,-2,-1,
O=C(COc1nsnc1N1CCOCC1)Nc1ccc(Cl)cc1,-9,22,4,-3,i,-2,5,-4,
Cc1nc2ncnn2c(C)c1CCC(=O)Nc1ccc(S(=O)(=O)N2CCCCCC2)cc1,-13,-11,1,-1,i,7,10,-12,
Cc1ccc2cc(CCNC(=O)C(C)C)c(=O)[nH]c2c1,-12,-3,2,5,i,-5,-6,-8,
CCOc1ccc(NC(=O)c2ccc(CN3CCc4ccccc4C3)cc2)cc1,-14,31,-5,-32,i,8,4,4,
Cc1cc(NC(=O)CCN2C(=O)c3ccccc3C2=O)no1,-5,-85,0,1,i,-10,11,8,
O=C(NNC(=O)c1ccc2ccccc2c1)Nc1ccc(F)cc1,-20,/,1,3,i,2,-5,4,
CCOC(=O)C(CN1CCCC1)c1ccccc1 (stereo unspecified),-2,14,-1,6,i,-2,/,/,
CC(C)CNC(=S)NNC(=O)c1ccco1,-2,3,3,0,i,-11,1,6,
CCCc1cc(=O)oc2cc(C)cc(OC(C)C(=O)NCCCN3CCOCC3)c12 (stereo unspecified),0,-11,-7,2,i,-13,4,-9,
Cc1ccccc1NS(=O)(=O)c1nnc(NC(=O)c2ccc(Br)cc2)s1,-6,-6,1,-4,i,-6,-11,2,
COc1ccc([N+](=O)[O-])cc1NCc1c(F)cccc1F,-23,14,-2,1,/,/,/,/,
Cc1cc(-c2nnc(CSc3nnc(NC(=O)c4ccc(C(C)(C)C)cc4)s3)o2)ccc1[N+](=O)[O-],/,-7,6,-5,i,2,5,-13,
NC(=O)c1ccc(NC(=O)COC(=O)CCC2CCCC2)cc1,-4,2,1,4,/,/,/,/,
NC(=O)c1ccccc1NC(=O)CSc1nc2ccccc2c(=O)[nH]1,-8,-17,-4,8,i,56,-9,7,

# Next section, overlapping the part above by two compounds.
SMILES,Yeast UUG start,HIV Env fusion,MT1-MMP act inh,MT1-MMP act inh RFP,Rce1 inhib,CSC inhib,eIF4H FP inh,PABP FP inh,others
NC(=O)c1ccc(NC(=O)COC(=O)CCC2CCCC2)cc1,-4,2,1,4,/,/,/,/,
NC(=O)c1ccccc1NC(=O)CSc1nc2ccccc2c(=O)[nH]1,-8,-17,-4,8,i,56,-9,7,
Cc1ccc2cccc(OC(=O)c3ccc4c(c3)OCCO4)c2n1,-21,4,2,-5,i,-5,7,-4,
COc1ccc(C(=O)N/C(=C\c2cn(C)c3ccccc23)C(=O)N2CCOCC2)cc1OC,11,-7,1,0,i,-17,-5,3,
Fc1cc(Cl)c(OCc2noc(-c3ccsc3)n2)c(Cl)c1,/,-15,0,-4,i,5,-3,-6,
CC(=O)Nc1cc2c(=O)n(Cc3ccccc3)c(C)nc2cc1N1CCOCC1,-13,-15,-4,-1,/,-12,-11,19,
CCOc1ccc(CCNC(=O)CSCC(=O)Nc2cccc(C)c2)cc1OCC,/,/,5,1,i,-4,/,/,
CN(C)CCNC(=S)Nc1ccc(Br)cc1,/,/,3,6,i,-3,-12,5,
CCN(CC(=O)Nc1c(F)cccc1F)C(=O)CCCNC(=O)c1ccc(Cl)cc1,1,/,-5,-2,i,-10,/,/,
Cc1cccc(C)c1NC(=O)CS(=O)CC(=O)NCCCc1ccccc1 (stereo unspecified),-2,/,1,4,/,3,92*,61*,eIF4H FP inh retest=105*;PABP FP inh retest=97*
Cc1ccc(NC(=O)C[n+]2cc(-c3ccccc3)n3c2CCC3)cc1,-3,-2,2,-3,i,-3,3,-8,
CS(=O)(=O)Nc1ccc([N+](=O)[O-])cc1Oc1ccccc1,-16,i,-3,-2,i,4,7,-5,
COc1ccc(N(C(=O)c2ccc3c(c2)OCO3)C2C=CS(=O)(=O)C2)c(OC)c1 (stereo unspecified),2,6,1,2,i,-9,-17,-2,
Cc1ccc(Cl)cc1N1CCN(C(=O)C2CCN(S(C)(=O)=O)CC2)CC1,-2,24,-4,-4,i,8,3,-14,
O=C(O)COc1ccccc1/C=N/NC(=O)c1cccc(S(=O)(=O)Nc2cccc(Cl)c2)c1,/,-3,0,5,i,-10,1,-17,
O=S(=O)(c1ccc(Cl)nc1)N(Cc1ccccc1)Cc1ccccc1,-13,6,-10,-15,i,1,-3,-5,
COc1cccc(CNC(=O)[C@H](C)NC(=O)C2CCN(S(=O)(=O)c3ccccc3)CC2)c1,0,13,0,-3,i,-11,-11,-3,
CCN(C(=O)COC(=O)CCOc1ccccc1C)c1c(N)n(Cc2ccccc2)c(=O)[nH]c1=O,-16,0,-1,1,/,/,/,/,
O=C(/C=C/c1ccco1)Nc1cccc(-c2nc3ccccc3[nH]2)c1,5,-110,8,-3,i,19,-7,3,
O=C(Nc1ccccn1)c1ccc(Br)c(S(=O)(=O)N2CCCCC2)c1,5,/,2,4,i,1,-12,0,
CC(C)CN(Cc1cc(=O)oc2cc3c(cc12)CCCC3)CC(C)C,-18,8,-3,-1,i,31,-4,-3,
CCOc1ccc(CCNC(=O)c2cc(=O)[nH]c3ccc(S(=O)(=O)N(CC)CC)cc23)cc1OCC,-1,13,/,/,i,-3,-12,4,
CC(NC(=S)NCCCN1CCOCC1)C1CC2CCC1C2 (stereo unspecified),-15,8,0,-2,/,/,-7,1,
CC(Sc1nc2cc(Cl)ccc2s1)C(=O)Nc1cccc(S(=O)(=O)N2CCOCC2)c1 (stereo unspecified),/,/,5,-6,i,11,-7,-6,
CCOCCCNC(=O)C1CCN(S(=O)(=O)CC)CC1,-4,/,-1,4,i,1,-8,-1,
O=C(CCN1C(=O)/C(=C/c2ccccc2Cl)SC1=S)NNC(=O)c1cccnc1,/,5,-1,-2,i,-2,-6,-3,
CO/N=C(\C(=O)N[C@@H]1C(=O)N2C(C(=O)O)=C(COC(C)=O)CS[C@H]12)c1csc(N)n1 (stereo in doubt),-24&-42&-23,0&-4&-11,1&-1&-2,7&2&2,i,-19,-3,-8,
OC(COc1ccc2c(c1)OCO2)CN1CCCC1 (stereo unspecified),/,-6,-4,-5,i,4,-2,12,
Cc1nn(C)c(C)c1/C=C1/SC(=S)NC1=O,-12,/,-6,0,i,13,-10,13,
CC(=O)N1CCN(CC(=O)Nc2ccc([N+](=O)[O-])cc2Br)CC1,3,16,-2,5,i,-12,8,-4,
CCc1cc2c(SCC(=O)Nc3ccc(Cl)cn3)ncnc2s1,/,-23,3,10,/,/,-3,-6,
Cc1cccc(CCNc2nc3ccc(C)cc3n3cnnc23)c1,-12,-22,5,2,i,-9,-10,-1,
COc1ccc(OC)c(-c2csc(N(C)C(=O)Cc3ccccc3)n2)c1,/,-11,0,1,i,-10,5,-16,
COc1ccc(-c2cc(C(=O)Nc3c(C)n(C)n(-c4ccccc4)c3=O)c3ccccc3n2)c(OC)c1,2,13,-4,-3,i,-18,1,0,
CCN(CC)C(=O)c1cnn(-c2ccccc2)c1NC(=O)c1cccc(F)c1,-17,/,0,4,i,-11,7,7,
COc1ccc(NC(=O)Cc2ccccc2)cc1,-15,-78,2,2,i,-4,2,-4,
CC1(c2ccccc2)NC(=O)N(CC(=O)NCc2ccc3c(c2)OCO3)C1=O (stereo unspecified),-15,-3,3,3,i,-3,1,9,
Cc1ccc(C)c(-n2c(-c3cccnc3)n[nH]c2=S)c1,/,19,0,4,i,-4,-2,-6,
COCCNC(=O)C(C)OC(=O)C1=Cc2ccccc2OC1 (stereo unspecified),/,-11,3,2,i,6,6,6,
c1cnc(SCCCOc2ccc3ccccc3c2)nc1,-15,-25,-4,-6,i,-11,3,2,
COc1ccc(NS(=O)(=O)c2ccc(-c3cnc(C4CC4)o3)cc2)cc1OC,-16,-157,-12,-31,i,62,2,-2,
Cc1nc(NCCCn2ccnc2)c2oc3ccccc3c2n1,-13,/,2,5,i,-14,-4,1,
C[C@@]12C(=O)N(Cc3ccco3)CC(=O)N1[C@H]1c3cc(Cl)ccc3OC[C@@H]1[C@@H]2c1ccccc1,8,16,-15,-2,/,/,/,/,
O=C(NCCN1CCN(S(=O)(=O)c2ccc([N+](=O)[O-])cc2)CC1)C(=O)Nc1ccccc1,-16,3,3,0,i,6,1,-6,
COc1ccc(F)cc1-c1cc(NC(C)=O)c2ncc(-c3cc(OC)c(OC)c(OC)c3)n2c1,-19,42,-3,-11,/,/,/,/,
O=C(CC1Nc2ccccc2NC1=O)NC1CCCCC1 (stereo unspecified),-3,-8,-5,3,i,1,3,15,
O=C(NCC1CC1)c1ccc(-n2ccnc2)c2ccoc12,163*,1,0,3,/,/,/,/,
Cc1ccc(-n2ncc3c2CC(C)(C)CC3NC(=O)c2ccccn2)cc1 (stereo unspecified),0,0,-5,-10,i,-1,-2,-2,
Cc1c(CCC(=O)O)c(=O)oc2cc(O)ccc12,0,2,5,9,?,-11,-13,-5,
CCc1c(C)nc(SCC(=O)N2CCCCC2C)[nH]c1=O (stereo unspecified),/,-6,2,4,i,10,-14,1,
Cc1ccc(C)c(SCC(=O)NC(=O)NCc2ccccc2)c1,-4,/,-1,0,i,-5,1,27,
COc1ccc(CN2CCC(=O)N([C@H](CO)Cc3ccccc3)CC2)cc1OC,-14,-14,-1,-5,i,1,-8,4,
Cc1ccc(C2(O)C(=O)c3ccccc3C2=O)c(O)c1C,2,-1,1,-2,i,-9,8,-2,
Cc1c(C(=O)NN)nc2ccccn12,/,-14,-3,0,i,-6,-3,0,
CCN(CC)CCN1C(=O)C(O)=C(C(C)=O)C1c1ccccc1[N+](=O)[O-] (stereo unspecified),0,-1,4,4,i,10,25,40,
CCC(=O)N1c2ccc(S(=O)(=O)N3CCN(c4ccc([N+](=O)[O-])cc4)CC3)cc2CC1C (stereo unspecified),-8,27,-1,-28,i,8,3,-1,
O=C(COC(=O)/C=C/c1cccs1)Nc1ccc(Cl)cc1F,/,-7,0,2,/,-16,/,/,
CC(C)[C@H](NS(=O)(=O)c1ccccc1)C(=O)OCC(=O)Nc1ccc2c(c1)OCO2,/,10,2,2,i,-6,11,-6,
O=C(NC1CS(=O)(=O)CC1NCc1ccccc1)c1ccccc1 (stereo unspecified),-7,-91,-7,-3,i,-20,5,8,

# Grouped by structure: the compounds so far with a thiophene ring, fused or not (3)
SMILES,Yeast UUG start,HIV Env fusion,MT1-MMP act inh,MT1-MMP act inh RFP,Rce1 inhib,CSC inhib,eIF4H FP inh,PABP FP inh,others
Fc1cc(Cl)c(OCc2noc(-c3ccsc3)n2)c(Cl)c1,/,-15,0,-4,i,5,-3,-6,
CCc1cc2c(SCC(=O)Nc3ccc(Cl)cn3)ncnc2s1,/,-23,3,10,/,/,-3,-6,
O=C(COC(=O)/C=C/c1cccs1)Nc1ccc(Cl)cc1F,/,-7,0,2,/,-16,/,/,
